BasE inh = BasE siderophore biosynthesis inhibition. AID 485350. inhibition, % (concentration not given with the values). actives 0.1% (n = 84,000). purified BasE, fluorescence polarization binding displacement;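 active = both replicates above 25% with normal brightness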;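 also: 0% = negative plate control signal and 100% = positive plate control signal; stock transfer was 100 nL into about 30 µL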
KSHV LANA nucl = inhibitors of KSHV LANA binding to nucleosomes. FITC-LANA1-23 / chicken nucleosome fluorescence polarization; hits give low values. AID 720717. actives 0.3% (n = 51,000). z-score (test concentration not listed);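 active = both repeat wells score below -2 in polarization z-score versus plate sample wells, excluding overly bright wells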;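 also: 100 nL library stock added to about 30 µL; numbers are from one replicate; some results filed as inactive read as strong as hits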
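Assay system: purified chicken nucleosomes with FITC-labelled LANA N-terminal peptide (1-23) / Probe or stimulus: 50 nM FITC-LANA1-23 probe / Compound dosing: pin-transferred compound, 100 nL / Times: compound with peptide–nucleosome mix 10–45 min at room temperature / Technique: fluorescence polarization, 480 nm excitation, 535 nm parallel and perpendicular emission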
* = called active by the depositor; / = not tested or not shown; & = joins results of further samples. An excerpt, so the mix of outcomes need not match the whole.

#	structure	BasE inh	KSHV LANA nucl
1	CCOc1ccc(-c2c(C#N)c(N)nc3sc(C(=O)OC)c(N)c23)cc1	-0.8	0.25
2	O=C(O)C1C(c2ccccc2)C(C(=O)N2CCCCC2)C1c1ccccc1 (stereo not given)	-0.3	-0.41
3	COc1ccc(-c2nc3ccccc3o2)cc1NC(=S)NC(=O)CC(C)C	-4.5	-0.28
4	CCc1cccc(NC(=S)N(CCOC)C(C)c2ccco2)c1 (stereo not given)	1.5	0.55
5	O=C(O)c1ccc2c(c1)NC(=O)C1CCCN21 (stereo not given)	/	-1.9
6	Cc1nc(NCc2ccccc2)sc1C(=O)N(C)C	-1.6	/
7	CC1(CCc2ccccc2)NC(=O)N(CN2CCN(c3ccccc3F)CC2)C1=O (stereo not given)	0.5	/
8	COc1ccc(C2CC(c3cccs3)=NN2C(=O)Cn2nnc(-c3cccnc3)n2)cc1OC (stereo not given)	0.2	/
9	CCn1c(=S)[nH]c2ccccc21	0.8	/
10	O=C(O)c1nccnc1C(=O)OCCCc1ccncc1	5.9	0.25
11	COc1cccc(N(CCN2C(=O)c3ccccc3C2=O)C(=O)C(C)C)c1	-2.5	/
12	Nc1cc(-c2ccccc2)nn1CCO	0.9	/
13	Cc1cc(C)n(-c2ccc(Cl)c(C(=O)NN3C(C)CCCC3C)n2)n1 (stereo not given)	0.1	/
14	CC(Sc1nncn1-c1ccccc1)C(=O)N1CCc2ccccc21 (stereo not given)	-1.5	/
15	CCCn1nnc(NC(=O)/C=C/c2ccccc2)n1	1.1	/
16	COC(=O)COc1ccc2cccc(-n3cnnn3)c2c1	-1.7	3.4

Shown in transposed form: six of the compounds above.
10) O=C(O)c1nccnc1C(=O)OCCCc1ccncc1
11) COc1cccc(N(CCN2C(=O)c3ccccc3C2=O)C(=O)C(C)C)c1
12) Nc1cc(-c2ccccc2)nn1CCO
13) Cc1cc(C)n(-c2ccc(Cl)c(C(=O)NN3C(C)CCCC3C)n2)n1 (stereo not given)
14) CC(Sc1nncn1-c1ccccc1)C(=O)N1CCc2ccccc21 (stereo not given)
15) CCCn1nnc(NC(=O)/C=C/c2ccccc2)n1

entry no. | 10 | 11 | 12 | 13 | 14 | 15
BasE inh | 5.9 | -2.5 | 0.9 | 0.1 | -1.5 | 1.1
KSHV LANA nucl | 0.25 | / | / | / | / | /

Next section
#	structure	BasE inh	KSHV LANA nucl
17	Cc1ccn2c(=O)cc(COc3ccc4c(c3)OCO4)nc2c1	-3.2	/
18	COCCNc1c(-c2ccccc2)nc2cc(C)ccn12	0.3	-0.68
19	COc1cccc(NC(=S)N(Cc2ccco2)C(C)c2ccco2)c1 (stereo not given)	-1.1	0.27
20	COc1ccc(-n2ncc(NC(=O)Nc3ccc4c(c3)OCCCO4)c2C)cc1	1.4	/
21	N#Cc1nccnc1Oc1ccc(Cl)cc1	1.6	-0.39
22	CC1=CC(=O)c2ccccc2C1=O	-1.8&-1.9	-0.18&-0.69&-0.73
23	COc1ccc(N2C(=O)CCC(C(=O)O)C2c2ccccc2)cc1 (stereo not given)	-2.3	/
24	O=C(c1ccc(NC2=NC3CS(=O)(=O)CC3S2)cc1)N1CCN(c2ccccc2)CC1 (stereo not given)	-0.9	1.3

One compound at a time, as listed above. Order of screens: BasE inh	KSHV LANA nucl
`O=C(c1ccc(NC2=NC3CS(=O)(=O)CC3S2)cc1)N1CCN(c2ccccc2)CC1` (stereo not given) as listed: -0.9	1.3
`COC(=O)COc1ccc2cccc(-n3cnnn3)c2c1` as listed: -1.7	3.4

Next part
#	structure	BasE inh	KSHV LANA nucl
25	CC(C)(C)/C=N/NC(=O)C1CC1	3.3	0.64
26	Cc1ccc(Cn2nc(C)c(/C=C/C(=O)OCc3nc4c(oc5ccccc54)c(=O)[nH]3)c2Cl)cc1	1.1	/
27	O=C1CN(C(=O)CC2c3ccccc3-c3ccccc32)CC(=O)N1	43*	-0.66
28	CC(=O)N1CCc2c(sc3c2c(=O)n(-c2ccccc2)c(=O)n3CC(=O)Nc2cc(C)[nH]n2)C1	-1.6	-1.1
29	CNC(=O)CN1C(=O)CCCc2ccccc21	2.3	-0.71
30	Cn1c(C(N)=O)cc2ccccc21	-1.2	2.5
31	Cn1c(O)c(C=NCCc2c[nH]c3ccccc23)c(=O)[nH]c1=S	-1.0	-0.94
32	COc1ccc(CNC(=O)C(OC(=O)c2ccc(Cl)nc2)c2ccccn2)cc1 (stereo not given)	2.4	-0.9
33	CSc1nc(-c2ccccc2F)c(C#N)c(=O)n1C	4.9	0.031
34	CCC(=O)Nc1c(C(=O)N2CCc3ccccc3C2)cnn1-c1ccc(C)c(C)c1	0.4	-0.36
35	CC1CCCCC1NC(=O)c1ccc(F)cc1 (stereo not given)	0.7	/
36	Cc1noc(C)c1C(=O)N(CC(=O)Nc1ccccc1Br)Cc1ccco1	-3.4	/
37	Cc1cc(C)c(CN)c(=O)[nH]1	-0.7	/
38	COc1ccccc1C(=O)N/N=C/c1c(O)c(I)cc2oc3c(c12)CCCC3	2.5	-1.3
39	O=C(Cn1c2ccc(F)cc2c2nc3n(c(=O)c21)CCS3)NC1CCCC1	1.6	0.34
40	CCOC(=O)c1ccoc1COC(=O)/C=C/c1ccc(SC)cc1	0.9	/
41	O=c1cc(-c2c(F)c(F)c(F)c(F)c2F)oc2c(F)c(F)c(F)c(F)c12	-0.2	/
42	Nc1nccnc1C(=O)O	1.3	/
43	O=C1c2cccnc2C(=O)N1CCc1ccc(S(=O)(=O)NC2CCCCCC2)cc1	-1.8	0.36
44	CCn1c(=O)c2ccccc2n2c(=S)[nH]nc12	-0.2	/
45	O=C1NC2(CCc3ccccc32)C(=O)N1CN1CCN(S(=O)(=O)/C=C/c2ccccc2)CC1 (stereo not given)	-0.9	/
46	Nc1nc(SCC(=O)c2cccs2)n[nH]1	1.1	/
47	Cc1ccc(SCCSc2ncccn2)cc1	-0.6	-1.4
48	Cc1oc(-c2ccccc2)nc1C(=O)OCc1cc(=O)n2ccsc2n1	-1.9	/
49	Cc1nnc(SCC(=O)n2c3ccccc3c3ccccc32)s1	-1.3	-0.71
50	CCC(=O)Nc1nnc(C)s1	0.7	/
51	COc1ccc(CCNC(=O)c2n[nH]c(=O)c3ccccc23)cc1OC	1.0	-0.83
52	Cc1ccc(C)c(C(=O)CSc2nc3ccccc3o2)c1	-2.9	-0.93
53	CCc1sc(-c2nnc(CSc3nnc(-c4ccncc4)n3C)o2)cc1C	-0.2	/
54	O=C(OCc1nc2ccccc2c(=O)[nH]1)c1ccc(S(=O)(=O)N2CCCC2)cc1	-0.1	/
55	O=C(Nc1cccnc1)NC1CC(=O)N(c2ccccc2)C1 (stereo not given)	0.8	-1.2
56	Cc1occc1-c1nnc(SCC(=O)N(C)C)o1	0.6	/
57	S=C(NCC1CCCO1)Nc1ccc(N2CCCCC2)cc1 (stereo not given)	0.6	/
58	CNc1nc(OC)nc(N(C)C)n1	0.3	0.85
59	CC(Sc1nc2ccccc2n1CCC#N)C(=O)N1CCCC1 (stereo not given)	1.3	/
60	Cc1nn2c(nc(Cl)c3ccccc32)c1Cl	0.8	/
61	Cc1sc(NC(=O)c2ccccc2)c(C(c2cccs2)N2CCN(C)CC2)c1C (stereo not given)	0.7	/
62	O=C(CSc1ccccc1)OCc1nc2ccsc2c(=O)[nH]1	-0.9	/
63	O=C(CSc1nncs1)Nc1ccccc1	-3.6	/
64	Cc1sc(Nc2ccccc2)nc1-c1ccccc1	-1.4	-1.8
65	CCOC(=O)/C(C#N)=C\c1cc2ccc(OC)cc2[nH]c1=O	14	-4.5*
66	CCn1nc(C(=O)NC2CCCc3ccccc32)c2ccccc2c1=O (stereo not given)	1.4	/
67	CCOC(=O)Nc1nnc(C(C)C)s1	1.4	1.4
68	CC(=O)N1CCN(c2csc3ccccc3c2=O)CC1	2.8	0.18
69	N#Cc1ccc(OC(F)F)cc1	1.2	/
70	FC(F)(F)c1ccc(N2CCN(c3cc(C(F)(F)F)nc4ccccc34)CC2)nc1	2.7	-1.8
71	Cc1cccc(Cl)c1NC(=O)Nc1ccc(N2CCCCC2)cc1	/	-0.54
72	COc1ccccc1-c1nn(-c2cccc(C(F)(F)F)n2)c(=O)o1	-1.2	/
73	CCCCN1CNC(=S)NC1	-0.9	/
74	CC1CN(CC(=O)Nc2ccccc2C(C)C)CC(C)O1 (stereo not given)	-1.5	/
75	N#CC1=C(C#N)NC2(CCCCC2)C2CCCCC2=N1 (stereo not given)	1.0	1.2
76	CC(C)N(C(=O)COc1ccccc1C(=O)Nc1ccccc1)C(C)C	-0.2	/
77	CCS(=O)(=O)C(=C1NCCO1)S(=O)(=O)CC	0.3	-0.59
78	COc1ccc(S(=O)(=O)N2CCN(C)CC2)cc1C	-0.4	-0.85
79	CCn1c(=O)cc(SCC(=O)N2CCCC2)c2ccccc21	0.2	-1
80	O=C(Nc1ccccc1)Nn1cnc2ccccc2c1=O	2.4	/

Further records.
#	structure	BasE inh	KSHV LANA nucl
81	O=C1NC(/C=C/c2ccco2)Nc2sc3c(c21)CCN(Cc1ccccc1)C3 (stereo not given)	-0.4	0.62
82	O=c1[nH]c(CN2CCC(Cc3ccccc3)CC2)nc2scc(-c3cccs3)c12	16	/
83	CC(C)(C)NC(=O)NC(=O)Cn1nc(C(=O)O)c2ccccc2c1=O	3.0	/
84	COc1ccc(C(=O)NC(=O)CSc2n[nH]c(N)n2)cc1	-0.5	/
85	Cc1ccc(C(=O)c2c(NC(=O)CSc3nnnn3C)sc3c2CCCC3)cc1	0.0	/
86	Cc1onc(-c2ccccc2)c1C(=O)NC(=S)Nc1ccc(Cl)cc1	0.9	/
87	CN1CCCC(OC(=O)c2ccc(F)cc2)C1 (stereo not given)	1.5	-0.21
88	CC(=O)SCc1n[nH]c(=S)n1C(C)=O	-1.7	/
89	CNC(=O)Oc1ccc2c(c1)[C@]1(C)CCN(C)[C@@H]1N2C	-1.7&-1.7&-0.2	0.48&-0.4&-0.36&-0.3&0.61
90	N#CC1=C(N)Oc2nc[nH]c(=O)c2C1c1ccncc1 (stereo not given)	0.3	-0.071
91	O=C1OC(C(=O)NC2CCCCC2)Cc2ccccc21 (stereo not given)	0.5	0.59
92	CCCn1c(SCC(=O)Nc2ccccc2C(F)(F)F)nnc1-c1ccoc1C	-2.2	-1
93	CN(C)/C=N/C(=S)Nc1cccc(F)c1	4.7	-0.12
94	COc1ccc(CN(C)C(=O)c2ccc(OC)c(OC)c2)cc1	1.4	-0.39
95	COc1ccc(OCCOC(=O)c2cccn2C)cc1	-0.5	/
96	Cc1cc(C)c(C#N)c(N2CCN(c3cccc(C)c3C)CC2)n1	-5.6	1.4
97	Cn1c(N)c(C(=O)Cn2nnc3ccccc3c2=O)c(=O)n(C)c1=O	3.8	/
98	Cc1ccccc1NS(=O)(=O)c1cc(Br)cnc1N	-0.8	-0.9
99	CN(CC(=O)Nc1ccc(Cl)c(Cl)c1)CC(=O)Nc1ccc2[nH]c(=O)[nH]c2c1	-3.1	/
100	O=C(C1COc2cc(S(=O)(=O)N3CCCC3)ccc2O1)N1CCCC1 (stereo not given)	4.9	-0.66
101	CC(C)C(=O)Nc1c(C(=O)NC(C)(C)C)oc2ccccc12	-0.3	/
102	COC(=O)C(C#N)=C(SC)SC	5.0	/
103	CCOC(=O)c1[nH]c(C(=O)O)c(CC)c1C	2.2	/
104	COc1ccc2c(=O)c(N3C(=O)c4ccccc4C3=O)c(C)oc2c1	2.9	-0.3
105	CSc1nnc2c(n1)OC(C1CC=C(C)CC1)Nc1ccccc1-2 (stereo not given)	-0.9	/
106	Cc1ccccc1NS(=O)(=O)c1ccc2oc(=O)ccc2c1	2.1	-0.093
107	Cc1ccc(C)c(CSC2=NN3CCCC(=O)N=C3S2)c1	-3.3	0.13
108	Cc1ccsc1CNC(=O)Nc1ccc(C(F)(F)F)cc1	-1.6	/
109	CCOC(=O)c1ccc(NCc2cc(Br)ccc2O)cc1	5.3	-0.29
110	COC(=O)CNc1ccc(Br)cc1	2.0	0.014
111	O=C(OCC(=O)c1c[nH]c2ccccc12)c1cccc(O)c1	-4.2	/
112	C/C(=N\O)C(C)(C)Nc1ccc(C(C)(C)C)cc1	-1.8	/
113	O=C(Cn1ncc(Cl)c(Cl)c1=O)c1ccc(S(=O)(=O)N2CCCC2)cc1	1.4	/
114	O=C1CCC(NC(=O)OCc2ccccc2)(C(=O)O)O1 (stereo not given)	0.0	0.17
115	COC(=O)C(NC(=O)c1ccccc1)=C1C=C(C)OC(C)=C1	-0.4	0.42
116	O=C1Nc2ccccc2C(=O)C1(N1CCOCC1)N1CCOCC1	0.9	0.001
117	CC(c1ccc(F)cc1)N1CN(Cc2ccccc2)c2nc3ccccc3n2C1 (stereo not given)	2.0	/
118	CC(N)C(=O)N1CCCCC1 (stereo not given)	0.2	0.19
119	O=C(Cc1ccc(S(=O)(=O)N2CCOCC2)s1)OCc1nc2ccccc2s1	-2.1	/
120	Nc1nc2c(ncn2CCC(CO)CO)c(=O)[nH]1	/	0.053&-0.19
121	CCc1nc2cccnc2n1-c1ccc(CC(=O)N2CCOCC2)cc1	5.4	-0.07
122	CCN(C(=O)CSc1nc2nc(C)cc(C)n2n1)C1CCS(=O)(=O)C1 (stereo not given)	-1.1	/
123	COc1ccc(S(=O)(=O)N2CCC(C(=O)N3CCCC3)CC2)cc1OC	1.9	0.86
124	CCCNC(=O)C1CC(c2cnn(CC)c2C)=NO1 (stereo not given)	-2.7	-1.1
125	CC1CC(C)CN(S(=O)(=O)c2ccc(C(=O)Nc3nnc(C4CC4)o3)cc2)C1 (stereo not given)	0.4	0.29
126	CCC(C)(C)NC(=O)c1ccc2ncsc2c1	-1.0	/
127	CN(C)N1C(=O)CC(NCc2ccccc2)C1=O (stereo not given)	-0.4	-0.86
128	O=C(N[C@@H](Cc1ccccc1)C(=O)NC1CCCCC1)c1ccco1	1.4	/
